Source: PubChem BioAssay
TRPV1 potentiator – HTS Assay for Compounds that Act as Potentiators of the Vanilloid Receptor 1 | TRPV1-expressing cells, Fluo-8 calcium influx, capsaicin EC20 potentiation; host cell line not named in the record; control for the full effect not named in the record | potentiation, % at 8.33 µM | 320,000 tested, 0.02% active | AID 540277, 2011; active means potentiation above 80%; inconclusive means 30% to 80%; inactive means below 30%; note: 0% is about no effect
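Fluo-8 calcium influx in TRPV1-expressing cells, kinetic read (ex 480/em 520 nm). Compound added and read 3 min for agonist activity, followed by capsaicin at EC20 final and 2 min further read for enhancement.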
Sfp inh – qHTS Assay for Inhibitors of Bacillus subtilis Sfp phosphopantetheinyl transferase (PPTase). 310,000 tested, 3.5% active. AID 1490, 2009. Potency, µM, inactives show max response, negative = inhibition, actives largely listed as inhibitors. Biochemical Sfp PPTase activity, qHTS. 4'-phosphopantetheinyl transferase ffp (Bacillus subtilis), Q9F4F7; active = well fitted inhibition curve with a large enough effect; inconclusive = small, poorly fitted or top-dose-only effect, or another doubt; inactive = no such curve, though single readings can be large or run the other way;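 note: the enzyme is Sfp with the accession as filed and its product quenches rhodamine fluorescence; potency is the fitted concentration of half-maximal effect; 0% = enzyme reaction without inhibitor and -100% = no enzyme wells; top concentration of the series not given in the record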
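With Hepes-Na pH 7.6 buffer containing 10 mM MgCl2, Sfp (15 nM) modified BHQ-2-YbbR (12.5 uM) using rhodamine-CoA (5 uM). Two reads 30 minutes apart at 525/598 nm yielded each well's rate.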
D2 potentiator – Beta-Arrestin HTS for Positive Allosteric Modulators of the Human D2 Dopamine Receptor: Potentiators. AID 624464, 2012. DiscoveRx D2 beta-arrestin cells, luminescence, 90 min; 100% = 57 uM dopamine signal. potentiation, % (test concentration not listed). 360,000 tested, 0.23% active; active = potentiation of 50% or more; inconclusive = 30% to 50%; inactive = 30% or less;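 note: compound concentration not given in the record; tested on top of an EC20 dose of dopamine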
Target sequence (P14416 whole entry, looked up): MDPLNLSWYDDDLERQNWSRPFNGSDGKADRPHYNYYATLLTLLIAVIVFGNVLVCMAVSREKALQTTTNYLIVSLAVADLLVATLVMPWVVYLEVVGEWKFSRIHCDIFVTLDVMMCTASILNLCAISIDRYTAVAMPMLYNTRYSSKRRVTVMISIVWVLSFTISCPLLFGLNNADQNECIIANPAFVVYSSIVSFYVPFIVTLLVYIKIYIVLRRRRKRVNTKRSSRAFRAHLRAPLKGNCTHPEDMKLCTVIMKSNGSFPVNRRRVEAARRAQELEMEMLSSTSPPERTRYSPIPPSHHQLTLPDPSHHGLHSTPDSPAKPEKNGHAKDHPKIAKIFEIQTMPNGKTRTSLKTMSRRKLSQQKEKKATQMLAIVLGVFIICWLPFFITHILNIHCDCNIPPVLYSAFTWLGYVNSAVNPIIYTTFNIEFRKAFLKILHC
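PathHunter beta-arrestin assay in DiscoveRx D2 cells. Compounds were added with an EC20 of dopamine (50 nM final) for 90 min at 37 deg C. Luminescence was read 1 h after detection reagent, with 57 uM dopamine as the EC100 control.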
ClpP mod – qHTS Assay for Activators of ClpP; ATP-dependent Clp protease proteolytic subunit (Bacillus subtilis (strain 168)), P80244; purified B. subtilis ClpP, FRET peptide cleavage, 20 min; Potency, µM (series often up to 57.5 µM), for inactives: at the highest dose activity change, negative = active; 340,000 tested, 1.9% active; AID 651965, 2013; active = well fitted falling curve with a large enough effect; inconclusive = small, poorly fitted or top-dose-only effect; inactive = no such curve, though single readings can be large or run the other way; note: potency is the fitted concentration of half-maximal effect; the source files actives as falling curves though it sought activators and does not explain the sign; nearly all actives have a fitted effect of over 65% in size; many hits overshoot -100%
Target sequence (P80244 whole entry, looked up): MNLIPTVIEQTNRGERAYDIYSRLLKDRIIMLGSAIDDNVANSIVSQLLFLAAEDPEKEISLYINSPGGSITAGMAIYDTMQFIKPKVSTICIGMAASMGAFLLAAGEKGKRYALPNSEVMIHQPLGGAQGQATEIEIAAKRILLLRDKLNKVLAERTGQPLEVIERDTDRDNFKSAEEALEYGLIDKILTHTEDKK
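ClpP 10 microg/mL final, pH 8 Tris/KCl buffer with BSA, glycerol, Tween-20; compound pinned in; FRET-FV substrate; RT 20 min; Ex320/Em430; ΔFRET vs ADEP 5.8 microM, DMSO, no enzyme.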
gsp ag – qHTS for Agonist of gsp, the Etiologic Mutation Responsible for Fibrous Dysplasia/McCune-Albright Syndrome: qHTS; gsp mutant cells, cAMP HTRF, 30 min; control for the full effect not named in the record; Potency, µM (highest dose often 76.9 µM), for the others: at the highest dose activation (cAMP increase), hits mostly activators; 340,000 tested, 0.13% active; AID 624287, 2012; active = well fitted activation curve with a large enough effect; inconclusive = small, poorly fitted or top-dose-only effect, or another doubt; inactive = no such curve, though single readings can be large or run the other way; cell line not stated here;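 note: phosphodiesterase inhibitor Ro 20-1724 added with compounds to block cAMP breakdown; potency is the fitted concentration of half-maximal effect; nearly all actives have a fitted effect of over 60% in size; about a fifth of the inactives were tested at one dose only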
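Cells in DMEM/10% FBS with G418 were pretreated with compounds in DMSO plus […] (300 uM stock) for 30 min at 37C. cAMP was measured by HTRF (cAMP-d2 plus anti-cAMP antibody-K) after 30 min at room temperature.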
Menin MLL FP FL – qHTS Assay for Inhibitors Targeting the Menin-MLL Interaction in MLL Related Leukemias: Competition With Fluorescein Labeled MLL-derived Peptide | 290,000 tested, under 10 active | Fluorescence polarization, fluorescein-MLL peptide displacement from menin | FP activity change, % at 61.4 µM; inconclusive = falling polarisation curve, or a change in total fluorescence; inactive = total fluorescence flat and polarisation flat or rising; no compound was filed as active; the % refers to the polarisation; negative = inhibition;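 note: % of control where 0% means no effect; inhibitors lower the polarisation; unlabelled MLL peptide was the positive control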
gsp antag – qHTS for Antagonists of gsp, the Etiologic Mutation Responsible for Fibrous Dysplasia/McCune-Albright Syndrome: qHTS. gsp-mutant cells, cAMP HTRF, 30 min; control for the full effect not named in the record. Potency, µM (top dose mostly 76.9 µM), without a hit: top-dose activity change, negative = inhibition, usual class: inhibitors. 340,000 tested, 0.4% active; active = falling curve of any shape with a large fitted effect; inconclusive = falling curve, mostly with a smaller effect; inactive = flat or rising curve; cell line not stated here;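 note: intracellular cAMP measured with PDE inhibitor Ro 20-1724 present during compound exposure; potency is the fitted concentration of half-maximal effect; % is set by controls: 0 for no effect and ±100 for the full control effect; nearly all actives have a fitted effect of over 65% in size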
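Measurement of cellular cAMP by homogeneous time-resolved fluorescence following a 30 min compound exposure at 37C. The PDE inhibitor […] was present throughout; the assay buffer was DPBS with 0.05% BSA and 0.005% Tween 20.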
* hit, by the source's call; ? = inconclusive; / = not tested or not shown; & = joins results of further samples; [ ] = dose if it differs, or a comment.

SMILES	TRPV1 potentiator	Sfp inh	D2 potentiator	ClpP mod	gsp ag	Menin MLL FP FL	gsp antag
CC/C(=C(/CC)c1ccc(O)cc1)c1ccc(O)cc1	-12.3	3.2%&-16.9%&2.9%	2.2	-0.3%	/	1.1&1.3&2.0	-9.1%
Cc1cc(=O)oc2c(C)c(OC(C)C(=O)NCCCn3ccnc3)ccc12 (stereo not given)	-4.8	15.5%	-12.9	3.3%	25.2%	-6.9	13.8%
CCOC(=O)Cc1cc(C)[nH]c1C(=O)OCC	?	22.4%	-3.4	-1.1%	-1.1%[15.4 µM]	-0.4	-9.5%
CCCOc1ccc(C(=O)c2ccccc2C(=O)OC2CCOC2=O)cc1OCCC (stereo not given)	-0.4	/	-11.1	1.4%	5.0%	/	9.1%
CCC(=O)c1cc2c(C)cc(=O)oc2c(C)c1OC(=O)C(C)C	0.2	-21.0%	-17.0	268.9%	4.1%[15.4 µM]	0.6	8.7%
CN(C)c1ccc(CNC(=O)CCc2ccc(S(=O)(=O)N3CCCCCC3)cc2)cc1	-17.8	/	2.4	/	18.0%[15.4 µM]	/	-15.3%
Cc1ccc(S(=O)(=O)N2CCOCC2)cc1NC(=O)CSc1ncccn1	2.7	/	3.2	?	10.2%[15.4 µM]	/	9.7%
Cc1c(CCC(C)C)c(=O)n2c([nH]c3ccccc32)c1C#N	-26.7	7.8%	-13.3	3.16µM*	22.0%	1.6	13.2%
Cc1cc(C)n2nc(C(=O)Nc3ccc(S(=O)(=O)N(C)C)cc3)nc2n1	-4.1	18.6%	-2.4	-0.7%	1.9%	3.9	7.7%
COc1ccc(OC)c(-n2c(C)nc3cc(C(=O)O)ccc32)c1	13.3	-12.2%	13.9	-5.4%	4.5%	1.2	-3.4%
NC(=O)CSc1nnc(-c2ccc(O)cc2)n1Cc1ccco1	-12.1	2.7%	-0.4	-1.0%	10.0%	3.9	18.3%
CN(C)/C=C1/Oc2c(ccc3ccccc23)C1=O	?	-2.2%	-2.7	/	3.6%[15.4 µM]	2.0	5.2%

A portion taken from the entries so far, as a working copy:
SMILES	TRPV1 potentiator	Sfp inh	D2 potentiator	ClpP mod	gsp ag	Menin MLL FP FL	gsp antag
CC/C(=C(/CC)c1ccc(O)cc1)c1ccc(O)cc1	-12.3	3.2%&-16.9%&2.9%	2.2	-0.3%	/	1.1&1.3&2.0	-9.1%
Cc1cc(=O)oc2c(C)c(OC(C)C(=O)NCCCn3ccnc3)ccc12 (stereo not given)	-4.8	15.5%	-12.9	3.3%	25.2%	-6.9	13.8%
CCOC(=O)Cc1cc(C)[nH]c1C(=O)OCC	?	22.4%	-3.4	-1.1%	-1.1%[15.4 µM]	-0.4	-9.5%
CCCOc1ccc(C(=O)c2ccccc2C(=O)OC2CCOC2=O)cc1OCCC (stereo not given)	-0.4	/	-11.1	1.4%	5.0%	/	9.1%
CCC(=O)c1cc2c(C)cc(=O)oc2c(C)c1OC(=O)C(C)C	0.2	-21.0%	-17.0	268.9%	4.1%[15.4 µM]	0.6	8.7%
CN(C)c1ccc(CNC(=O)CCc2ccc(S(=O)(=O)N3CCCCCC3)cc2)cc1	-17.8	/	2.4	/	18.0%[15.4 µM]	/	-15.3%
Cc1ccc(S(=O)(=O)N2CCOCC2)cc1NC(=O)CSc1ncccn1	2.7	/	3.2	?	10.2%[15.4 µM]	/	9.7%
Cc1c(CCC(C)C)c(=O)n2c([nH]c3ccccc32)c1C#N	-26.7	7.8%	-13.3	3.16µM*	22.0%	1.6	13.2%

Other compounds follow.
SMILES	TRPV1 potentiator	Sfp inh	D2 potentiator	ClpP mod	gsp ag	Menin MLL FP FL	gsp antag
Cc1cccc(NC(=O)c2cc(S(=O)(=O)N3CCc4ccccc43)cn2C)c1	-3.3	16.8%	1.0	118.5%	-42.5%	-0.8	7.5%
CC(C)=CC(=O)Nc1nnc(-c2cccnc2)s1	-1.1	13.0%	-1.1	-5.9%	-25.8%	-0.4	18.4%
Cc1cc(Br)ccc1NC(=O)CCS(=O)(=O)c1cccc2nonc12	23.4	1.0%	0.6	0.5%	?	-0.9	-15.2%
O=c1c2c3c(sc2nc2n1CCC2)CCCCC3	-8.4	20.0%	-5.1	-1.1%	21.6%[15.4 µM]	0.1	-31.9%
COc1ccc(S(=O)(=O)Nc2ccc(S(=O)(=O)Nc3nccs3)cc2)cc1	-6.6	23.6%	1.2	/	-28.6%	-6.5	-2.5%
C[n+]1ccccc1/C=C1\Sc2ccccc2N1CCO	21.5	6.6%	-11.3	-4.4%	2.7%[15.4 µM]	9.4	-1.4%
CN(CC(=O)Nc1cccc(F)c1)C(=O)c1ccccc1Sc1ccccc1C#N	-9.4	/	-1.2	-1.0%	?	/	-24.4%
COC(=O)Cn1c(=O)c2c(n(Cc3ccccc3)c1=O)N/C(=C/c1ccc(OC)cc1)C2=O	9.9	-10.1%	1.4	/	13.7%[15.4 µM]	7.4	-10.0%
COc1ccc(NC(=O)C=C(C)C)cc1Cl	-27.9	-4.9%	-2.5	0.9%	-20.5%	2.7	3.4%
COc1cccc(C2C3=C(CC(C)(C)CC3=O)Nc3cc(OC)c(OC)cc32)c1 (stereo not given)	-5.4	-2.9%	-8.3	/	37.7%[15.4 µM]	4.2	-11.4%
COc1ccc(OC)c(S(=O)(=O)N2CCCC(C(=O)NC3CC3)C2)c1 (stereo not given)	/	/	-13.1	/	-2.4%[15.4 µM]	/	3.5%
O=C(Nc1cccc([N+](=O)[O-])c1)C1COc2ccccc2O1 (stereo not given)	-8.7	10.8%	-3.1	0.4%	?	3.1	-9.5%
COCCn1c(C)cc(C(=O)CSc2nc(C)cc(C)c2C#N)c1C	1.4	-17.9%	11.3	0.8%	-2.7%	1.5	?
Oc1ccc2ccc3cccc[n+]3c2c1	/	/	-6.5	-2.0%	?	/	10.9%
COc1cc(OC)c(C2=NOC(C(=O)N3CCc4ccccc4C3)C2)cc1Cl (stereo not given)	7.9	-14.7%	-13.8	-8.7%	28.2%	-0.4	-17.5%
COc1cccc(C(=O)N2CCN(C(=O)Cc3ccccc3)CC2)c1	-12.9	19.0%	-0.9	/	-8.6%	-2.7	0.0%
CCc1ccc(N(CC)C(=O)c2ccc3c(Cl)c4c(nc3c2)CCC4)cc1	22.7	-26.7%	2.0	-2.2%	-33.1%[inhibitor]	2.1	-28.5%
CCCOc1c(Br)cc(C2C3=C(CCCC3=O)N(C)C3=C2C(=O)CCC3)cc1OC	-4.6	-12.5%	-13.9	/	-0.5%[15.4 µM]	4.7	-7.0%
COc1ccccc1NC(=O)Cn1c([N+](=O)[O-])cnc1C	22.9	16.3%	2.7	/	-57.3%[inhibitor]	-2.9	5.8%
CCOC(=O)c1cnc(SCc2nc(N)nc(Nc3ccccc3OC)n2)nc1N	4.4	-24.9%	/	/	/	-1.2	/
Cc1ccc(C2C3=C(CC(C)(C)CC3=O)Nc3[nH]c(=S)[nH]c(=O)c32)cc1 (stereo not given)	-1.4	14.1µM*	3.1	12.3%	-9.4%	-1.7	1.8%
O=[N+]([O-])c1cc(/C=N/N2CCN(C3c4ccccc4-c4ccccc43)CC2)ccc1Cl	?	18.8%	-1.7	2.3%	-5.5%	3.9	13.3%
Cc1ccc(-n2c(C)cc(C3N=C(N)Nc4nc5ccccc5n43)c2C)c(C)c1 (stereo not given)	0.8	?	-18.3	-3.5%	-12.6%	1.1	13.2%
COc1ccc(C(=O)NCCc2ccccc2)cc1[N+](=O)[O-]	-21.6	5.9%	0.9	-5.8%	13.3%[15.4 µM]	2.7	0.0%
COc1ccc(S(=O)(=O)NCCC(=O)N2CCCC2)cc1N(C)S(C)(=O)=O	2.5	8.9%	-9.7	/	8.2%[15.4 µM]	1.4	5.1%
CCOC(=O)CSc1nc(NCc2ccco2)c2ccccc2n1	19.4	3.3%	-19.3	-1.0%	-0.1%	1.4	-6.4%
Cc1nc(C)c(-c2ccn(C(=O)NC(C)C)n2)s1	0.2	27.1%	-0.6	/	1.4%	4.9	4.1%
COc1ccc(NC2=NCC(Cc3ccc(Br)cc3)S2)cc1 (stereo not given)	10.7	-1.3%	-12.0	/	-10.8%	-2.5	11.8%
COc1cccc(-c2sc3ccc(OC)cc3c2-c2ccc(OCCN3CCOCC3)cc2)c1	/	/	11.5	?	/	/	-7.8%
CN(Cc1cccs1)C(=O)c1cc(S(=O)(=O)N2CCOCC2)ccc1F	-7.7	/	-2.7	0.8%	-1.1%	/	4.2%
COc1ccc(Br)cc1CN(C)CC(=O)NCCc1ccc(S(N)(=O)=O)cc1	-15.0	13.0%	-2.6	0.3%	-8.4%[15.4 µM]	-6.8	-24.0%
CO/N=C/C(c1ccc(Cl)nc1)S(=O)(=O)c1ccccc1 (stereo not given)	-2.9	8.3%	-5.9	-1.8%	-2.9%	0.3	-8.3%
Oc1ccc2ccccc2c1/C=N/n1cnnc1	-15.1	1.5%	-6.4	2.1%	6.5%	1.6	4.0%
O=C(NCCCO)/C(=C\c1cn(-c2ccccc2)nc1-c1cccnc1)NC(=O)c1ccccc1	1.5	13.8%	-8.4	-14.7%	7.6%	6.6	?
COc1ccc(C2SCCN2S(=O)(=O)c2ccc(F)cc2)cc1OC (stereo not given)	1.9	-4.3%	-5.3	1.3%	?	3.9	-8.3%
O=C(NC1CCN(S(=O)(=O)c2ccc(Cl)cc2)CC1)C1CCCCC1	16.2	9.2%	-11.7	/	26.4%[15.4 µM]	0.5	-13.6%
CCOc1ccc(C(O)(CCC(C)C)C(CN2CCOCC2)c2ccccc2)cc1 (stereo not given)	-8.1	2.9%	-3.2	/	16.8%	-3.3	-7.5%

An unsorted share of the library (roughly 5.1% active in at least one column).
